# gsp ag = agonists of gsp mutant (McCune-Albright syndrome). Potency, µM (top dose mostly 76.9 µM), without a hit: top-dose activation (cAMP increase), usual class: activators. 340,000 tested, 0.13% active. gsp mutant cells, cAMP HTRF, 30 min; control for the full effect not named in the record; active = well fitted activation curve with a large enough effect; inconclusive = small, poorly fitted or top-dose-only effect, or another doubt; inactive = no such curve, though single readings can be large or run the other way; cell line not stated here;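 note: phosphodiesterase inhibitor Ro 20-1724 added with compounds to block cAMP breakdown; potency is the fitted concentration of half-maximal effect; nearly all actives have a fitted effect of over 60% in size; about a fifth of the inactives were tested at one dose only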
#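 Cells stably selected in G418 were plated at 2000/well, grown 16-24 hr, then given compounds in DMSO with the PDE inhibitor […] (300 uM solution added) for 30 min at 37C; cAMP was read by HTRF.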
# ClpP mod = qHTS Assay for Activators of ClpP. AID 651965, 2013. 340,000 tested, 1.9% active. purified B. subtilis ClpP, FRET peptide cleavage, 20 min. ATP-dependent Clp protease proteolytic subunit (Bacillus subtilis (strain 168)), P80244. Potency, µM (highest dose often 57.5 µM), for inactives: top-dose activity change, negative = active; active = well fitted falling curve with a large enough effect; inconclusive = small, poorly fitted or top-dose-only effect; inactive = no such curve, though single readings can be large or run the other way; note: potency is the fitted concentration of half-maximal effect; the source files actives as falling curves though it sought activators and does not explain the sign; nearly all actives have a fitted effect of over 65% in size; many hits overshoot -100%
# Target sequence (P80244 whole entry, looked up): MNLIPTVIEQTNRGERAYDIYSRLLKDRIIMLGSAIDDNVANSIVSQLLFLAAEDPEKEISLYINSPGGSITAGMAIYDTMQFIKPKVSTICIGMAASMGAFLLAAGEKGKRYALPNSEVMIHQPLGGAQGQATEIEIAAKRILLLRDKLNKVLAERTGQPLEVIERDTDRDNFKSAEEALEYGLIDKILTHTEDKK
#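 FRET quenching reversal measured ClpP activation: 10 microg/mL B. subtilis ClpP at pH 8 with the FRET-FV decapeptide, read at 430 nm after 320 nm excitation. The 20-min minus 0-min signal was scaled between DMSO/no-enzyme wells and ADEP (5.8 microM final).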
# TRPML1 ag = agonists of human TRPML1 channel; Q9GZU1; TRPML1-expressing cells, Ca2+ dye fluorescence, FDSS; host cell line not named in the record; reference of the full effect not given here; activation, % (concentration not given with the values); 410,000 tested, 0.12% active; in the data active = activation above about 50%; inconclusive = about 30% to 50%; inactive = below about 30%; note: 0% is about no effect; the text of the record puts the active cut at 80%
# Target sequence (Q9GZU1 whole entry, looked up): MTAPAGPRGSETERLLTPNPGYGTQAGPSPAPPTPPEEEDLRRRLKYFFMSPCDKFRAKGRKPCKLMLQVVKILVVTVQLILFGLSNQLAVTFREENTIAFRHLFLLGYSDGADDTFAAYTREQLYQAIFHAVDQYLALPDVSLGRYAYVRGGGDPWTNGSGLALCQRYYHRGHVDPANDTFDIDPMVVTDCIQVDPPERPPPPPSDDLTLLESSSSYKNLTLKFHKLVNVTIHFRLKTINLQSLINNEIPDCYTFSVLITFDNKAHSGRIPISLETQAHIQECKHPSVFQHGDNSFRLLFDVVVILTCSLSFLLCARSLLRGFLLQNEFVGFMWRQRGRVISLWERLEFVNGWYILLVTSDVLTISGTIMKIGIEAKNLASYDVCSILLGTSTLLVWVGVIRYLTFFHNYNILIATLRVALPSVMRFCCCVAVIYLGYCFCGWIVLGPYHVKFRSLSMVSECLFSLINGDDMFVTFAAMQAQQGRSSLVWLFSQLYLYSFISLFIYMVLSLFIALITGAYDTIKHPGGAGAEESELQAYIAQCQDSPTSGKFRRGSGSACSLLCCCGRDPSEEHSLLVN
#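 Kinetic FDSS Ca2+ read in Tet-induced TRPML1-DL cells (ABD Ca8 dye plus quencher, 45-90 min RT loading): baseline, then compound, then 110 s agonist window; EC80 agonist 54-4 at 4uM final added afterwards for a 110 s antagonist window.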
# TRPML1 inh = blocks the human TRPML1 channel. Q9GZU1. TRPML1-inducible cells, Ca2+ dye fluorescence, FDSS; stronger effect = lower value; inhibition of EC80 agonist-evoked calcium signal. activity change, negative = inhibition, % (concentration not given with the values). 390,000 tested, 0.02% active. AID 624415; in the data active means activity change below about -50%; inconclusive means about -30% to -50%; inactive means above about -30%;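 note: stimulus is agonist 54-4 at its EC80 concentration; % is set by controls: 0 for no effect and ±100 for the full control effect; compound concentration not given in the record; the text of the record puts the active cut at -80%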
#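 Calcium fluorescence in TRPML1-DL cells induced overnight with Tet: a 110 s read after compound pin addition, then a 110 s antagonist read after challenge with 54-4 at 4 uM final (EC80).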
# Menin MLL FP FL = menin-MLL binding inhibition, fluorescein peptide; Fluorescence polarization, fluorescein-MLL peptide displacement from menin; FP activity change, % at 61.4 µM; 290,000 tested, under 10 active; AID 1766; inconclusive = falling polarisation curve, or a change in total fluorescence; inactive = total fluorescence flat and polarisation flat or rising; no compound was filed as active; the % refers to the polarisation; negative = inhibition;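 note: % of control where 0% means no effect; inhibitors lower the polarisation; unlabelled MLL peptide was the positive control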
# gsp antag = gsp mutant antagonism | Potency, µM (titrated, usually from 76.9 µM), for inactives: at the top dose activity change, negative = inhibition, hits mostly inhibitors | 340,000 tested, 0.4% active | AID 624288 | gsp-mutant cells, cAMP HTRF, 30 min; control for the full effect not named in the record; active = falling curve of any shape with a large fitted effect; inconclusive = falling curve, mostly with a smaller effect; inactive = flat or rising curve; cell line not stated here;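 note: intracellular cAMP measured with PDE inhibitor Ro 20-1724 present during compound exposure; potency is the fitted concentration of half-maximal effect; % is set by controls: 0 for no effect and ±100 for the full control effect; nearly all actives have a fitted effect of over 65% in size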
#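 G418-selected cells were plated in DMEM/10% FBS for 16-24 h at 37C, then treated with compounds plus the PDE inhibitor […] (300 uM solution added) for 30 min at 37C. Intracellular cAMP was measured by HTRF after 30 min lysis at room temperature.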
# The depositor's hits bear a star; ? = inconclusive; / = not tested or not shown; [ ] = remark or other dose.
# The line under a structure holds: gsp ag, ClpP mod, TRPML1 ag, TRPML1 inh, Menin MLL FP FL, gsp antag
> CN(C)/C=C/C(=O)c1cnc(-c2ccc(Cl)cc2)s1
 : -8%[15.4 µM], /, 0.2, -7, -0.6, 7%
> c1ccc(OCCOCCN2CCc3ccccc3C2)cc1
 : 27%, -1.1%, 3.0, -19, -0.3, -10%
> O=C1OCCN1CCN(CN1C(=O)CCC1=O)CN1C(=O)CCC1=O
 : -15%, 0.6%, -0.3, -4, 0.1, 15%
> O=C(NC1CCCc2ccccc21)C1CCCO1 (stereo not drawn)
 : 0%, 0.4%, -0.5, -8, 2.5, -2%
> CC(C)C(OC(=O)C1=Cc2ccccc2OC1)C(=O)NCC1CCCO1 (stereo not drawn)
 : 10%[15.4 µM], /, 2.1, 20, /, -7%
> COc1ccc(C)cc1S(=O)(=O)N(CC(=O)O)c1ccc(C)cc1
 : -43%[inhibitor], -2.4%, -0.2, 4, 11, 8%
> CC(C)CCNC(=O)NC(=O)COC(=O)CNC(=O)C1CCCCC1
 : -71%[inhibitor], 0.3%, 1.0, -13, -1.2, -7%
> Cc1sc2nc(CSCC(=O)N(CCC#N)c3ccccc3F)[nH]c(=O)c2c1C
 : -4%[15.4 µM], -1.6%, 0.9, -20, /, 7%
> O=C(Cc1cccc(NC(=O)C2CCCN(C(=O)C3CCCCC3)C2)c1)Nc1ccc(C(=O)N2CCCCC2)cc1 (stereo not drawn)
 : /, 1.7%, 1.5, 2, /, 1%
> Cc1ccc(S(=O)(=O)n2cccc2CO)cc1
 : /, -1.0%, -1.1, -9, /, 1%
> CNC(=O)C1CCC(Cn2c(=O)c3sccc3n(CC(=O)N3CCCC(C)C3)c2=O)CC1 (stereo not drawn)
 : /, -7.7%, 0.8, 2, /, /
> COc1ccc(Cn2c(=O)[nH]c3cc(C(=O)N4CCN(Cc5ccccc5)CC4)ccc3c2=O)cc1
 : -25%, -14%, 0.3, 36, 2.5, -12%
> Cc1cccc(OCC(=O)N2CCN(c3nnc(-c4ccccc4)c4ccccc34)CC2)c1
 : -5%, -1.3%, 1.3, 0, 1.6, ?
> Cc1n[nH]c(C)c1S(=O)(=O)N1CCCC(C(=O)Nc2ccc(Cl)cc2)C1 (stereo not drawn)
 : /, -2.1%, -0.9, -23, /, /
> O=C1c2ccccc2S(=O)(=O)c2cc(C(=O)N3CCN(c4ccccc4)CC3)ccc21
 : -28%, -0.2%, -0.4, -7, /, 2%
> COc1cccc(NC(=O)COC(=O)C2=NN(c3ccccc3)C(=O)CC2)c1
 : 19%[15.4 µM], -0.2%, -0.7, -4, /, -5%
> Cc1cc(S(=O)(=O)Nc2ccc3oc4c(c3c2)CCCC4)ccc1Cl
 : /, -3.7%, -0.5, 2, /, /
> COc1cccc(NC(=O)C(C)(C)C)c1
 : /, 0.4%, -0.5, 30, /, 7%
> Cc1cccc(NC(=O)c2ccc(Cl)c(S(=O)(=O)N3CCCC3)c2)n1
 : 4%[15.4 µM], -25%, -0.5, 44, /, -10%
> CC1CCN(C(=O)Cn2c(=O)n(-c3ccc(F)cc3)c(=O)c3sccc32)CC1
 : 16%, -3.0%, 0.7, 15, -5.9, -3%
> OC1(CNCc2cn[nH]c2-c2cc3ccccc3o2)CCCCC1
 : 14%[15.4 µM], /, 0.7, -4, -2.6, -2%
> CCc1c(C)nc2nncn2c1Nc1ccc(C(C)C)cc1
 : /, -1.8%, -0.4, -13, /, /
> Cc1ccc(NC(=O)c2ccc3oc(=O)c(S(=O)(=O)c4ccccc4)cc3c2)cc1C
 : /, -11%, -0.6, -7, /, /
> Cc1ccc(C)c(NC(=O)CSc2nnc(CNC(=O)c3ccco3)n2C)c1
 : ?, /, 1.0, -15, 3.7, 6%
> Cc1ccc(CN2CC(C(=O)N3CCN(S(=O)(=O)c4c(F)cccc4F)CC3)CC2=O)cc1 (stereo not drawn)
 : -44%, 1.7%, 0.3, 11, /, -27%
> Cc1ccc(N2C(=O)c3ccc(N)cc3C2=O)cc1C
 : 36%, -1.9%, 3.9, 36, -7.3, -13%
> COc1ccc(Cc2nnc(SCC(=O)c3cccc([N+](=O)[O-])c3)n2C)cc1
 : 2%, 1.4%, -0.6, 21, -1.1, -7%
> CCCOc1nc(SCCC)nc2c1cnn2-c1ccccc1
 : 32%, /, 0.8, 39, -7.2, -8%
> CC1=CCC2C(=O)N(C(C)c3ccccc3)C(=O)C2C1 (stereo not drawn)
 : ?, 2.7%, 0.5, 1, 3.0, 10%
> O=C(OCc1nc2scc(-c3ccccc3)c2c(=O)[nH]1)c1cccc([N+](=O)[O-])c1
 : 0%, -2.0%, 2.0, 18, 12, -6%
> Cc1c(NC(=O)[C@@H](NC(=O)c2ccc(Cl)c([N+](=O)[O-])c2)C(C)C)c(=O)n(-c2ccccc2)n1C
 : 12%[15.4 µM], 0.0%, 0.3, -6, /, -7%
> Cn1c(=O)c2c(nc(CN3CCc4ccccc4C3)n2Cc2ccccc2)n(C)c1=O
 : -1%, -11%, 2.2, -8, -1.4, 7%
> O=C(COc1ccc(S(=O)(=O)N2CCOCC2)cc1)NC1CCCC1
 : 30%, -1.5%, 0.0, -7, 1.5, 0%
> O=c1oc(-c2cc3ccccc3o2)nc2sc3c(c12)CCCC3
 : ?, -0.1%, 0.2, 10, 1.6, 2%
> Cn1c(=O)c2[nH]c(NN=Cc3ccccc3)nc2n(C)c1=O
 : 13%, /, -0.2, -13, /, ?
> Cc1ccc(C)c(/C=C2\N=C(c3ccccc3F)OC2=O)c1
 : -12%, -7.0%, -0.2, -14, 1.9, -4%
> Cc1ccc2[nH]c(C(=O)O)c(-c3ccccc3)c2c1
 : -38%[inhibitor], ?, -0.5, 29, 0.6, -25%
> COc1ccc2c(c1)sc1ncc(C(=O)NCc3cccc(C)c3)c(=O)n12
 : /, -28%, 0.3, -2, /, /
> CCOc1ccc2nc(SCC(=O)NC(=O)NCc3ccco3)sc2c1
 : 4%, 2.8%, 2.7, 10, 2.3, -9%[15.4 µM]
> C/C(=N/NC(=O)CNC(=O)c1cccs1)c1ccco1
 : 2%[15.4 µM], 0.0%, -0.7, -3, 1.9, 12%
> CC1CC(C)CN(C(=O)c2cc3ccccc3o2)C1 (stereo not drawn)
 : -3%[15.4 µM], -7.6%, 1.1, -17, /, -4%
> COc1ccc(C2c3cc(OC)c(OC)cc3CC3C(=O)OCC32)cc1OC (stereo not drawn)
 : ?, /, 0.0, 5, /, 2%
> CCOC(=O)C1=C(COC(=O)CCC(=O)c2ccc(C)cc2)NC(=O)NC1C (stereo not drawn)
 : 30%, 0.9%, 0.4, 4, /, 10%
> C=CCN(C(=O)Nc1ccc2oc(C)nc2c1)c1ccccc1
 : 8%, -20%, 1.8, -10, 1.0, -18%
> CN(CC(=O)Nc1c(Cl)cccc1Cl)CC(=O)N(C)C1(C#N)CCCCC1
 : 5%, /, -0.1, 0, /, 13%
> O=C(CSc1nc2ncc(Cl)cc2[nH]1)c1c[nH]c2ccccc12
 : -6%[15.4 µM], /, 1.4, -12, -1.2, 0%
> C=C(c1ccccc1)c1ccccc1N
 : 1%, -0.3%, 1.0, ?, /, 8%
> Nc1ccc(-c2sc(N)nc2-c2ccccc2)cc1
 : -28%[15.4 µM], /, 0.1, 9, -3.0, -8%
> c1ccc(NCC2OCc3ccccc3CO2)cc1
 : -54%[inhibitor], -16%, -0.6, 1, -0.1, 16%
> Cc1cc(=O)[nH]c(N2CCCC2)n1
 : -7%, ?, -0.3, -9, 2.4, 6%
> Cc1cc(C)cc(-n2cnc3cc(C(=O)NC4CCCCCC4)ccc32)c1
 : /, -8.8%, 3.5, 49, /, /
> Cc1nc(SCc2ccccc2)[nH]c(=O)c1CC(=O)OCC(C)C
 : 1%, 0.7%, 0.5, 25, 0.7, -8%
> Cc1cnc(C(=O)OCC(=O)N2CCc3ccccc3C2)cn1
 : -3%, -1.6%, -0.4, 10, 2.5, -6%
> CC(=O)c1ccc(NC(=O)c2ccc(N3C(=O)c4cccnc4C3=O)cc2)cc1
 : -9%, -0.4%, 0.3, 21, -0.6, 16%
> COc1ccc(/C=C/C(=O)NC(=S)Nc2ccc(S(N)(=O)=O)cc2)cc1OC
 : -7%[15.4 µM], ?, 0.4, 14, 0.4, -6%
> S=c1[nH]nc(COc2ccccc2)n1/N=C/c1cccnc1
 : -26%, -0.8%, -0.9, 20, 0.8, -13%
> CS(=O)(=O)N(CC(=O)NCCSC1CCCCC1)c1ccccc1
 : -1%[15.4 µM], /, -0.1, 5, -2.4, /
> Cc1ccc(NC(=O)COc2coc(CN3CCc4ccccc4C3)cc2=O)c(C)c1
 : 1%[15.4 µM], 0.8%, 1.0, 15, /, 8%
> CC1CCCC(C)N1C(=S)SCC(=O)O (stereo not drawn)
 : 0%, 0.8%, 0.9, -9, -0.6, -1%
> CN(c1ccc(C(=O)Nc2cccnc2)cc1)S(C)(=O)=O
 : -28%, 28µM*, 0.4, 5, 0.1, 7%

# Part of the list above, limited to ClpP mod, TRPML1 inh and Menin MLL FP FL.
SMILES	ClpP mod	TRPML1 inh	Menin MLL FP FL
Cc1cnc(C(=O)OCC(=O)N2CCc3ccccc3C2)cn1	-1.6%	10	2.5
CCOC(=O)C1=C(COC(=O)CCC(=O)c2ccc(C)cc2)NC(=O)NC1C (stereo not drawn)	0.9%	4	/
CC1CC(C)CN(C(=O)c2cc3ccccc3o2)C1 (stereo not drawn)	-7.6%	-17	/

# Going on with the list.
# The line under a structure holds: gsp ag, ClpP mod, TRPML1 ag, TRPML1 inh, Menin MLL FP FL, gsp antag
> CCOc1cc(/C=C2\SC(=N)N(c3nonc3N)C2=O)ccc1OCCN1CCOCC1
 : -82%[inhibitor], -1.0%, 2.3, 7, ?, ?
> COC(=O)C1=C(C)N(Cc2ccccc2)C(=O)N[C@H]1c1ccc(Br)cc1
 : -26%, 0.1%, 1.0, 4, -3.0[11.7 µM], 5%
> O=C1C=C(c2ccc3cc[nH]c3c2)C[C@@H](c2ccc3c(c2)OCO3)C1
 : -11%, -12%, 1.8, 0, /, -10%
> COc1ccc(CNC(=O)Cc2c(C)c3c(cc(C)c4c(C)c(C)oc43)oc2=O)cc1
 : /, -6.4%, -0.2, -5, /, /
> COc1ccc(/C=N/NC(=O)CNC(=O)c2ccc(S(=O)(=O)N3CCOCC3)cc2)cc1OC
 : -3%[15.4 µM], 1.8%, -0.3, -16, 0.8, 11%
> CC(=O)N1CCN(S(=O)(=O)c2cccc(C(=O)NNC(=O)COc3ccc(F)cc3)c2)CC1
 : 13%, -4.5%, 0.1, -10, /, 9%
> O=C(CC1NCCc2ccccc21)Nc1ccc(Oc2ccccc2)cc1 (stereo not drawn)
 : 14%[15.4 µM], /, 0.0, ?, 0.0, 6%

# Bioassay records from PubChem.

# Random draw from the library; any-hit rate near 2.1%.
